# Screens deposited in PubChem by several laboratories.
# RecA intein inh = Mtb RecA intein splicing inhibition. P9WHJ3. cell-free RecA intein splicing, fluorescence. inhibition, %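 (about 9 µM by stock and volumes)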. 0.75% of 290,000 active. AID 2221; in the data active = inhibition above about 30%; inconclusive = no clear call, values can overlap the other calls;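 also: 0% = vehicle wells and 100% = reference inhibitor control wells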
# Target sequence (P9WHJ3 whole entry, looked up): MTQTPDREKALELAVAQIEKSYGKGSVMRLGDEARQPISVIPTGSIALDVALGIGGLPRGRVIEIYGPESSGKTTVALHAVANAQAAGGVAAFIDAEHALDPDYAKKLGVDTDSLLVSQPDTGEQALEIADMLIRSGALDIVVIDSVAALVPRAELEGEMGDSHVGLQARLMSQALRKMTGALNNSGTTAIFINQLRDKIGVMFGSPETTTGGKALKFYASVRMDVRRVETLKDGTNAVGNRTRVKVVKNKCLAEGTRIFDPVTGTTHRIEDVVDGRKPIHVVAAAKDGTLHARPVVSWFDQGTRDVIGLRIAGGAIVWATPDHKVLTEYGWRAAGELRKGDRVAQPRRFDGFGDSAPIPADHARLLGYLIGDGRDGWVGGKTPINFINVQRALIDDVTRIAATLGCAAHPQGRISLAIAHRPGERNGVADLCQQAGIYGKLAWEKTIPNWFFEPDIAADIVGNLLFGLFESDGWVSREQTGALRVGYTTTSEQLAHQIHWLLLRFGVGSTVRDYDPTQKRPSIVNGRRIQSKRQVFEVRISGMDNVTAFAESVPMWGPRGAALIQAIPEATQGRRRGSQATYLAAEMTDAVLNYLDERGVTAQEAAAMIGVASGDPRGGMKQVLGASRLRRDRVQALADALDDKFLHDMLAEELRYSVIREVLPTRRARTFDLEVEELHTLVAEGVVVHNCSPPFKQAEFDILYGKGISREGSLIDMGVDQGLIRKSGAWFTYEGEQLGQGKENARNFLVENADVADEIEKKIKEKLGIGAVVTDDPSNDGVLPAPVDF
# Arbovirus anti = blocks arbovirus infection. arbovirus infection cell-based antiviral screen. AID 1251. 0.37% of 200,000 active. inhibition, % at 10 µM;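 active = inhibition from about 30%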;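 also: bluetongue infection of BSR cells; cell survival read as ATP light after 72 h; 0% = infected wells without compound and 100% = uninfected wells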
# YopH inh = YopH (Yersinia) phosphatase inhibition; fluorescence Ex485/Em525; inhibition, %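 (about 10 µM by stock and volumes)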; 0.16% of 140,000 active; AID 898;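 active = inhibition of 50% or more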;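 also: controls were vehicle for no effect and minimum signal wells for full effect; inactives centre near -20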
# Mtb growth = M. tuberculosis H37Rv growth inhibitors, H37Rv strain (AID 1626); M. tuberculosis H37Rv growth inhibition; higher % means a stronger effect; inhibition, % at 10 µM, or IC50 in µM where a hit was titrated; 0.95% of 220,000 active;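 active = confirmed in a dose series; inconclusive = inhibition above 80% but not taken into the dose series; inactive = below 80% or under 30% at every dose of the series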;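 also: bacteria incubated seven days before Alamar blue readout; 0% = bacteria only wells and 100% = bacteria with antibiotic wells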
# Mtb betalactam = beta-lactam sensitization of Mtb H37Rv; M. tuberculosis H37Rv growth with meropenem, percent inhibition; hits of this screen are not shown here; 0.27% of 330,000 active; inhibition, % at 25 µM; AID 434955;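 active = about 74% or more and at least 40 points above the plate without the antibiotic, then above 30% in a dose series; inconclusive = first-round hits that could not be retested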;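 also: growth measured after seven days incubation then overnight dye step; 0% = bacteria only wells and 100% = bacteria with antibiotic; twin plates without the antibiotic show which effects depend on it; some results filed as inactive read as strong as hits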
# Arbovirus anti repeat = also measured in Arbovirus anti; calls as there; inhibition, %; measured here: 10K subset replicate screen; many hits read low in the repeat;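 first of two repeat runs on a subset; 0% = infected and 100% = uninfected wells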
# An asterisk follows results filed as active; ? = inconclusive; . = no result given; & = joins results of further samples. Not all compounds are listed, so the mix of outcomes need not match the whole.
SMILES,RecA intein inh,Arbovirus anti,YopH inh,Mtb growth,Mtb betalactam,others
Cn1cc(/C=N\NC(=O)c2cccs2)c2ccccc21,-1.8,-6,.,1%,11,
CC1(C)OC(=O)N(CC(=O)Nc2cccc(C(F)(F)F)c2)C1(C)O (centres undefined),.,7,.,-8%,-7,
Cn1c(C(=O)NCCCN2CCCCC2)cc2sccc21,0.8,-4,-10,-10%,-5,
COc1ccc(C)cc1NC(=O)C(OC(=O)c1cccc(S(=O)(=O)N(C)c2ccccc2)c1)c1ccccc1 (centres undefined),-0.2,2,-36,-5%,-2,
O=C(c1ccc(Cl)cc1)N1CCCC(C(=O)N2CCCCC2)C1 (centres undefined),4.3,.,.,.,-9,
Fc1ccc(CSc2nc3ncccc3[nH]2)cc1,-0.1,-5,-22,1%,2,
COc1ccc(OC)c(NC(=O)CN2C(=O)COc3ccc(C)cc32)c1,-1.6,.,.,.,-2,
O=C(CSc1ccc(-c2ccc(F)cc2)nn1)N1CCOCC1,-0.9,7,.,1%,-5,
CCOC(=O)C1CCN(C(=S)Nc2ccc(CC)cc2)CC1,1.8,-2,.,-4%,-12,
O=C(CCN1C(=O)c2ccccc2S1(=O)=O)Nc1ccc(Cl)cc1,-1.5,.,.,.,98,
CCCc1nc(SCC(=O)Nc2nnc(CC)s2)c2c(=O)n(C)c(=O)n(C)c2n1,-2.1,.,.,.,2,
O=C(NCc1cccc(C(F)(F)F)c1)C1CCCN(c2cnccn2)C1 (centres undefined),1.0,.,.,.,0,
O=C(Nc1ccnn1C1CCN(C(=O)c2ccc(Cl)cc2)CC1)C1CC1,-4.3,.,.,.,-6,
COCCn1c(=N)c(S(=O)(=O)c2ccc(F)cc2)cc2c(=O)n3ccccc3nc21,-328,.,.,.,1,
Cn1c(=O)[nH]c(=O)c2c1nc(N1CCCCC1)n2CCCSc1nnnn1-c1ccccc1,-0.9,3,-25,-5%,0,
O=C(c1ccc2c(c1)OCCO2)C1CCN(C(=O)Nc2ccc(F)cc2)CC1,3.8,.,.,.,-1,
O=C(NC1CCCC1)C(c1ccc(F)cc1)N(C(=O)c1csnn1)c1ccccc1 (centres undefined),-0.3,.,.,.,-9,
CCC(C)NCCOCCOc1ccc(C)cc1Br (centres undefined),-2.3,-13,-18,10%,-5,
Cc1ccccc1OCC(=O)Nc1ccc(N2CCN(S(C)(=O)=O)CC2)cc1,1.8,-1,-34,-7%,-2,
Cc1ccc(C(=O)/C=C2/NC(=O)CS2)cc1,-3.9,3,-31,-4%,80,
CNC(=O)c1ccc2c(c1)nnn2C,.,8,-25,3%,6,
Cc1ccc(-c2cc(-c3ccc(C)cc3)[n+](-c3ccc(C(=O)[O-])cc3)c(-c3ccc(C)cc3)c2)cc1,40*,.,.,.,100,
CCN(CC)S(=O)(=O)c1ccc(NC(=O)c2ccc(NS(C)(=O)=O)cc2)cc1,0.4,-2,15,3%,2,
COc1cc(NC(=O)CN(c2ccc(C)cc2)S(=O)(=O)c2c(C)noc2C)cc(OC)c1,6.8,.,.,.,1,
CCC(=O)NC(=S)Nc1ccccc1C(=O)NC1CCCCC1,-0.2,1,-24,8%,-2,
O=C(NCc1cccc(Cl)c1)C1CCN(S(=O)(=O)c2ccc(F)cc2)CC1,-1.6,.,.,.,5,
O=C(N/N=C/c1ccco1)c1ccccn1,-0.3,0,-31,30%,96,
COc1ccc2c(CC(=O)Nc3nnc(C4CC4)s3)coc2c1,-0.1,7,-14,4%,1,
Cc1cc(NC(=O)c2cc(C(C)(C)C)oc2C)no1,1.3,.,.,-13%,-1,
COc1cccc(Nc2nc3ccc(OC)cc3s2)c1,6.7,-29,.,3%,30,
C=CCNc1nc(C(=O)OCC(=O)Nc2cc(S(C)(=O)=O)ccc2Cl)cs1,-0.6,.,.,.,-2,
COc1ccc(/C=N/NC(=O)c2c([N+](=O)[O-])c(C)nn2C)cc1,0.2,1,0,2%,8,
Cc1ccoc1C(=O)N1CCCC(CO)(Cc2ccc(F)cc2)C1 (centres undefined),1.3,.,.,.,4,
C/C=C/C=N/Nc1nc(-c2ccc([N+](=O)[O-])cc2)cs1,0.9,1,-11,77%,84,
O=C(NCc1nnc2c(C(F)(F)F)cc(Cl)cn12)c1ccc(Br)o1,-1.8,.,.,.,6,
COC(=O)c1ccc(COc2ccccc2/C=N/O)o1,-4.7,.,.,-1%,-5,
Nc1c2c(nc3sc4c(c13)CCCCC4)CCCCC2,-0.4,0,-2,?,96,
CN1CCCCC1CCN1c2ccccc2Sc2ccc(S(C)=O)cc21 (centres undefined),0.1,-12,.,-11%&-3%,0&-5,
CC1(C)CC(=O)C2=C(C1)Nc1ccccc1NC2,-3.6,3,.,0%,-4,
Cc1c(NC(=O)CSc2cccc3cccnc23)c(=O)n(-c2ccccc2)n1C,2.3,-16,-15,-4%,8,
CCCN1CCOC(CC(=O)Nc2ccc([N+](=O)[O-])cc2)C1=O (centres undefined),-3.4,1,.,-13%,2,
O=C(/C=C/c1ccccc1)Nc1cc(S(=O)(=O)N2CCOCC2)ccc1N1CCCC1,-1.0,1,-16,3%,1,
COc1ccc(/C(C)=N/NS(=O)(=O)c2cc(C)ccc2C)c(OC)c1,1.3,1,.,4%,-10,
COCCNCc1nc2sc(C)c(-c3ccccc3)c2c(=O)[nH]1,-0.7,.,.,-2%,43,
CC(C)(C)NC(=O)c1cc(F)c(F)cc1Cl,-1.9,6,-16,1%,-4,
Oc1csc(Cc2nc(-c3ccc4ccccc4c3)cs2)n1,4.5,1,-9,1%,7,
C=CCNC(=S)/N=c1\sccn1C,0.2,-9,-22,2%,-9,
CCN1C(=O)/C(=C\N2CCCCCC2)SC1=S,-1.9,6,-45,-6%,-20,
CCOC(=O)C1CCN(CC(=O)Nc2c(C(=O)OC)[nH]c3ccccc23)CC1,.,4,-35,-13%,.,
CCOc1ccc(/C=N/NC(=O)CNC(=O)c2ccc(S(=O)(=O)N3CCOCC3)cc2)cc1,-1.7,-4,.,-1%,2,
CCOc1ccc(NC(=O)CN(C)C(=O)c2ccc(N3CCOCC3)c([N+](=O)[O-])c2)cc1OCC,1.6,.,.,.,-10,
CCOCC(=O)N1CCN(c2ccccc2OC)CC1,-3.7,7,.,5%,-6,
Cc1ccc(C)c(Cn2c(=O)n(C)c(=O)c3sccc32)c1,-0.1,.,.,.,4,
CC1(C)Cc2cccc(OCC(=O)N3CCN(c4cccc(Cl)c4)CC3)c2O1,9.8,.,.,.,-9,
COc1ccc(N(CC(=O)O)S(=O)(=O)c2ccc(OC)c(OC)c2)cc1,0.2,-3,-43,-6%,-18,Arbovirus anti repeat=0
O=c1[nH]cnc2ccccc12,0.5,0,1,-3%,-7,
O=C(Cc1cccc2ccccc12)N/N=C/c1ccc(O)c([N+](=O)[O-])c1,1.2,3,.,-2%,.,
CN(C)c1ccc(NC2=C([N+](=O)[O-])CS(=O)(=O)C2)cc1,-3.0,5,5,-3%,4,
O=C(Nc1ccc(O)c2c(=O)cc(-c3ccccc3Cl)oc12)c1cccc(Cl)c1,-0.8,-20,-42,-9%,-1,
Cc1ccc2[nH]c(CN3CCN(C)C(CCO)C3)c(C)c2c1 (centres undefined),-1.6,.,.,.,-2,

# The list goes on:
SMILES,RecA intein inh,Arbovirus anti,YopH inh,Mtb growth,Mtb betalactam,others
COc1ccc(C(=O)NC2CC3CCCC(C2)N3Cc2ccccc2)c(OC)c1 (centres undefined),1.0,.,.,.,-16,
CCCS(=O)(=O)n1nc(-c2ccc(OC)cc2)cc1N,2.6,-5,-41,1%,-4,
Nn1c(Cc2cccc3ccccc23)nnc1SCc1ccc(Cl)c(Cl)c1,19,5,-9,6%,2,
S=C(Nc1ccc(Oc2ccccc2)cc1)NC1CCCCCC1,0.6,-18,-31,?,55,
Cc1cc(C)cc(NC(=O)C2CC(=O)n3ncnc3N2)c1 (centres undefined),-1.5,-3,.,4%,0,
CC(Oc1ccc(F)cc1)C(=O)Nc1nc(-c2ccccn2)cs1 (centres undefined),5.3,.,.,.,88,
O=C(COc1ccccc1[N+](=O)[O-])N/N=C/c1ccccn1,-1.1,-10,-25,-5%,8,
CCOC(=O)C1=C(C)NC(=O)NC1c1ccc2c(c1)OCO2 (centres undefined),-0.1,3,-27,10%,-8,
CC1(C)CC(=O)C2=C(C1)NC(=O)NC2c1ccccc1 (centres undefined),-2.5,9,.,0%,-2,
CCOC(=O)/C(=C/c1ccco1)NC(=O)c1ccc(Br)o1,-1.8,-1,.,6%,5,
CCN(CC)c1ccc(C=C2C(=O)OC3(CCCC3)OC2=O)cc1,-1.9,-6,-21,1%,6,
CCCCn1c(N)c(N(CC(C)C)C(=O)CSCc2ccc(Cl)c(Cl)c2)c(=O)[nH]c1=O,6.0,.,.,.,-11,
COc1ccc(Cl)cc1NC(=O)c1noc2c1CCCC2,4.1,16,.,-4%,6,
Cn1c(O)c(/C=N/N2CCOCC2)c(=O)n(C)c1=S,-1.3,.,.,-3%,1,
O=C(N/N=C1/CCCc2ccccc21)c1cc([N+](=O)[O-])cc([N+](=O)[O-])c1,-1.0,-16,.,?,99,
COc1ccc(OCCNS(=O)(=O)c2ccc3oc4ccccc4c3c2)cc1,1.5,13,-17,0%,-9,
C(=N\c1nc2ccccc2n1CCN1CCOCC1)/c1cccs1,-2.3,6,-35,-12%,-4,
C[N+]12CCC(CC1)C(C#N)(N1CCOCC1)C2 (centres undefined),1.1,0,-36,-13%,?,
CCC(C)NC(=O)COC(=O)c1cccnc1Nc1ccccc1F (centres undefined),5.5,-1,-22,5%,2,
Cn1c2c(c(=O)n(C)c1=O)C(NC(=O)C(C)(C)C)(C(F)(F)F)C(=O)N2 (centres undefined),-0.3,-9,-7,-3%,-6,
O=S(=O)(c1ccc(S(=O)(=O)n2cnc3ccccc32)cc1)N1CCCCCC1,0.2,8,-52,-6%,-24,
O=C(COC(=O)CNC(=O)c1ccccc1)Nc1ccc2c(c1)OCO2,-1.2,-3,.,4%,6,
O=C(NNC(=O)c1ccc(Cn2cccn2)o1)NC12CC3CC(CC(C3)C1)C2,-1.0,.,.,.,3,
CC(C)CC1=NN(C(=O)c2cccnc2)C(O)(C(F)(F)F)C1 (centres undefined),-1.6,16,-23,-2%,1,
Cc1ccc(/C=c2/sc3n(c2=O)CCCN=3)o1,-4.8,-3,-6,-10%,-6,
CC(=O)c1ccc(N2CCN(C(=O)C(=O)c3cn(CC(=O)N4CCCCCC4)c4ccccc34)CC2)cc1,1.4,.,.,.,11,
Cc1ccc(CNCC(=O)Nc2cccc(S(=O)(=O)NC3=NCCCCC3)c2)cc1,0.5,5,.,6%,0,
CCOC(=O)C1CCCN(C(=S)NC2CCCCC2)C1 (centres undefined),-0.1,14,.,5%,12,
CCOc1ccc(OCc2cccc(C(=O)N3CCCCCC3)c2)cc1,2.6,3,.,8%,1,
CCCc1[nH]nc2c1C(c1ccc(OC)cc1OC)C(C#N)=C(N)O2 (centres undefined),79*,-9,16,-6%,9,
CC1CN(C(C)C(=O)NC(c2ccccc2)c2ccccc2)CC(C)O1 (centres undefined),-0.7,.,.,.,-11,
CNC(=O)c1nnsc1S(=O)(=O)c1ccc(Cl)cc1,40*,-37,.,22µM*,.,
Cc1ccc(-n2ncc3c(N4CCC5(CC4)OCCO5)ncnc32)c(C)c1,0.9,-1,-41,9%,79,Arbovirus anti repeat=-4
CCOC(=O)N1CCN(Cc2nc3c(c(=O)[nH]c(=O)n3C)n2Cc2ccccc2C)CC1,0.8,4,-27,0%,.,
Cc1nn(-c2ccccc2)c(Cl)c1/C=N/Nc1nc2ccccc2[nH]1,-2.0,-9,-18,-4%,-5,
O=C(CCNS(=O)(=O)c1ccccc1)N1CCC(Cc2ccccc2)CC1,2.4,.,.,.,-1,
